OX1R antagonist: human HCRTR1 antagonism | O43613 | inhibition, % at 5 µM | CHO/OX1R cells, Fluo-8 calcium fluorescence, orexin A | 0.43% of 330,000 active;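 active = inhibition above its plate's threshold, mean inhibition of all tested compounds on the plate plus 3 SD, cut at about 37% in these data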;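 also: 0% = orexin A challenge wells and 100% = SB-334867-A antagonist wells; not every result past the cut was called active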
Target sequence (O43613 whole entry, looked up): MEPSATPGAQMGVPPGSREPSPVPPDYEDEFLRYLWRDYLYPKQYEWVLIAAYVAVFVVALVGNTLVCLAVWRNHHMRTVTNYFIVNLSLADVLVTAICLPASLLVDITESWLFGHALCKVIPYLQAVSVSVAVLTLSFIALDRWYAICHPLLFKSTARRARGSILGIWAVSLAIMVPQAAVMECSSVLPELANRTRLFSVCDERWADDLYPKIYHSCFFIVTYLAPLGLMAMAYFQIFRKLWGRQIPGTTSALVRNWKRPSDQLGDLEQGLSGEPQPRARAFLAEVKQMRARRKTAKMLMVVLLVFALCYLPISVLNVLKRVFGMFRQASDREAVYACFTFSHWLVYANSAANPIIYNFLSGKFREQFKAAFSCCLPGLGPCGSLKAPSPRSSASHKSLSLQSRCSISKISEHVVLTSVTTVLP
* hit, by the source's call. These rows are one share of the data, and most or all hits are left out here.

Compound | OX1R antagonist
Cc1cc(N2C(=O)NC(=O)CC2C)c(C)cc1C(C)C (centres undefined) | 8
CCc1ccc(S(=O)(=O)NCc2cn3ccccc3n2)s1 | 1
Cc1ccc(S(=O)(=O)N2CCN(C(=O)c3cccc(-n4cccc4)c3)CC2)cc1 | -19
O=[N+]([O-])c1cccc(-n2nncc2-c2ccccc2)c1 | -9
CCC(=O)Nc1ccc(C(=O)NNC(=O)C(c2ccccc2)c2ccccc2)cc1 | -29
CCOC(=O)c1ccc(-n2c(C)nc3c(cnn3-c3ccc(Cl)cc3)c2=O)cc1 | -15
Nc1nc(N2CCOCC2)nc2ccccc12 | 6
CCOC(=O)C1=C(c2ccccc2)NC(=O)NC1c1ccc(OCC#N)c(OC)c1 (centres undefined) | -19
CCOc1ccc(Nc2nc3ccccc3n3nnnc23)cc1 | -28
COc1cc(C=O)ccc1Oc1cnccn1 | 1
COc1ccc(-c2noc(-c3ccccc3C(=O)Nc3cccc(OC)c3)n2)cc1 | -11
O=C(CNC(=S)N(Cc1ccccc1)Cc1cccnc1)NCc1ccccc1 | -27
O=C(NC(Cc1c[nH]c2ccccc12)c1nnc2n1CCCCC2)c1ccccc1Cl (centres undefined) | -26
O=C(Cc1ccccc1)N/N=C/c1cc(Br)c(Br)o1 | -20
CCCc1nnc(NC(=O)CCC(=O)N2CCN(C3c4ccccc4-c4ccccc43)CC2)s1 | -18
NC(=O)C1CCN(C(=S)NCc2ccc3c(c2)OCO3)CC1 | 5
COc1ccc(Br)cc1CN(C)CC(O)COc1ccc(Br)cc1 (centres undefined) | -7
Cc1cc(O)cc(O)c1C(=O)Cc1cscn1 | -3
Cc1ccc(CNC(=O)C2CCN(S(=O)(=O)c3cccs3)CC2)o1 | -3
CCN(CC)S(=O)(=O)c1ccc(N2CCOCC2)c(NS(=O)(=O)c2ccc(OC)cc2)c1 | -27

Continued.
Compound | OX1R antagonist
COc1cccc(CNC(=O)CCC2CCCN(Cc3ccc(OC(F)F)cc3)C2)c1 (centres undefined) | -20
C=CCN1C2CCCC1CC(NC(=S)Nc1cccc(OC)c1)C2 (centres undefined) | -15
CC1CCN(S(=O)(=O)N2CCC(C(=O)N3CCC(N(C)CC4CCCO4)CC3)CC2)CC1 (centres undefined) | -17
O=C(COc1ncnc2scc(-c3ccc(Cl)cc3)c12)NCc1ccco1 | -19
O=C(c1ccccc1F)N1CCN(c2ccccc2)CC1 | -19
COc1ccc(NC(=O)CC2(Cc3ccccc3)CCOC(C)(C)C2)cc1 (centres undefined) | -16
CC(=O)Nc1c2c(nn1-c1ccccc1C)CS(=O)C2 (centres undefined) | -1
Cc1ccc(SCC(=O)N2CCC(C(N)=O)CC2)cc1 | -2
COc1ccc(C(=O)Nc2nnc(S(=O)(=O)N3CCC(C)CC3)s2)cc1OC | -30
CC(C)CC(=O)Nc1ccc(C(=O)Cn2nc(C(=O)O)c3ccccc3c2=O)cc1 | -1
Cc1nn2c(N)c(-c3ccccc3)cnc2c1-c1ccc(Cl)cc1 | -32
COc1ccc(NC(=O)C2CC(=O)OC23CCOC(C)(C)C3)cc1 (centres undefined) | -15
CC(C)OC(=O)CSc1nc(-c2ccc(F)cc2)cc(C(F)(F)F)n1 | -31
CCOC(=O)C1=C(O)C(=O)N(Cc2cccnc2)C1c1ccc(OC)cc1 (centres undefined) | -2
COc1ccccc1CCN=C(N)NS(=O)(=O)c1ccc(C)c(C)c1 | -21
COc1ccc2c(c1)c(=O)oc1cc(OCC(=O)N3CCC(C)CC3)ccc12 | -24
Cc1ccc2nc(SCc3nnc(-c4cccs4)o3)[nH]c2c1 | -29
CC(=O)Nc1ccc2nc(NC(=O)COc3ccc([N+](=O)[O-])cc3)sc2c1 | -12
Cc1cccc(NC(=S)NCCCN2CCOCC2)c1 | -6
CC(C)C[C@H](NC(=O)Nc1ccc(S(N)(=O)=O)cc1)C(=O)O | -9

(list continues)
Compound | OX1R antagonist
COc1ccc(C(=O)CC(=O)C(=O)Nc2c(C)cccc2C)cc1 | -21
CCC(=O)N(NC1=NS(=O)(=O)c2ccccc21)S(=O)(=O)c1ccc(C)cc1 | 7
CC(C)C(=O)O/N=C1\CCS(=O)(=O)c2sccc21 | -18
CC(C)C(OC(=O)c1ccco1)C(=O)NCc1cccs1 (centres undefined) | -10
O=C(CCn1nnc2ccccc21)Nc1nnc(Cc2ccccc2)s1 | -6
Cc1cc(C)c(-c2cc(NC(=O)COC(=O)c3ccc(NC(=O)CC#N)cc3)n(-c3ccccc3)n2)cc1C | -16
Cc1cc2oc3c(c(=O)c2cc1C)C(c1ccc(C(C)C)cc1)N(CCCN1CCOCC1)C3=O (centres undefined) | -19
O=C1Nc2ccccc2N=C(c2ccccc2)C1Br (centres undefined) | -15
O=C(c1ccccc1)c1ccc(OC(=O)C2CCCCC2)cc1 | 9
CN(Cc1ccccc1)C(=O)c1[nH]cnc1C(=O)N[C@@H](Cc1ccccc1)C(=O)OCc1ccccc1 | -2
CN(C)S(=O)(=O)c1ccc(N2CCCC2)c(C(=O)Nc2ccc(Br)cc2F)c1 | -23
CC(=O)c1cccc(NC(=O)c2ccc(C)o2)c1 | -22
O=C(Nc1cccnc1)C1COc2ccccc2O1 (centres undefined) | 1
NC(=O)CCC(=O)N1CCCC(C(=O)c2ccc3c4c(cccc24)CC3)C1 (centres undefined) | -7
O=C(Oc1ccc(-c2ccccc2)cc1)N1CCCCC1 | -12
N#Cc1nc(-c2ccccc2F)oc1N1CCN(C(=O)c2ccco2)CC1 | -13
OCCN1CCN(c2nc(NCc3ccco3)c3ccccc3n2)CC1 | -8
COc1ccc(S(=O)(=O)N(C)c2ccc(C(=O)N3CCN(C)CC3)cc2)cc1 | -6
CC(NC(=O)c1ccc2c(c1)OCO2)C1CCCO1 (centres undefined) | -6
CCOC(=O)c1c(N)nn(C(=O)CC)c1-c1ccccc1 | -19

Next section
Compound | OX1R antagonist
Cc1csc(SCC(=O)NCCc2ccc(Cl)cc2)n1 | -9
C=CCN(CC(=O)c1sc(C(=O)OCC)nc1C)c1cccc(Br)c1 | -31
CCCCCN1CC(O)=C(c2nc(-c3ccc(Cl)cc3)cs2)C1=N | -7
Cc1cccc(NC(=O)CCOc2ccccc2)c1C | -13
CCOC(=O)C1CN(S(=O)(=O)c2cc(OC)ccc2OC)C1 | -16
COc1cccc(C(=O)COC(=O)c2ccc(NC(C)=O)cc2)c1 | -17
O=C1C2C3C=CC(C3)C2C(=O)N1c1ccc(S(=O)(=O)Nc2nccs2)cc1 (centres undefined) | -8
COc1ccc(CCCc2n[nH]c(=S)o2)c(C)c1 | -5
CC(=O)c1ccc(Nc2nc(=O)c3cccnc3s2)cc1 | -19
Cc1ccccc1C(=O)N1CCN(CCNC(=O)C(=O)Nc2ccc(Br)cc2)CC1 | -17
CC(=O)c1ccc(N(C(=O)c2csnn2)C(C(=O)NC(C)(C)C)c2cccs2)cc1 (centres undefined) | -38
CN(Cc1ccccc1)C(=O)COc1ccc(-c2nnco2)cc1 | -2
CC1CCC/C(=C\Nc2ccccc2C(=O)O)C1=O (centres undefined) | -8
Cc1cc2oc3c(c(=O)c2cc1C)C(c1cccc(Br)c1)N(Cc1ccco1)C3=O (centres undefined) | -19
O=C(O)c1ccc(COCC(F)(F)C(F)F)o1 | -14
CCCC(C(=O)NC(C)(C)C)N(CC1CCCO1)C(=O)CNS(=O)(=O)c1ccc(F)cc1 (centres undefined) | -22
C/C(CC(=O)NCCCN1CCOCC1)=N\NC(=O)COc1ccc(Cl)cc1 | -1
CCn1c(=O)cc(SCC(=O)NCc2ccc(C)cc2)c2ccccc21 | -11
CCn1c(SCC(=O)Nc2ccc(OC)c(OC)c2)nnc1-c1ccco1 | -14
O=C(CSc1nnc2c(Cl)cc(Cl)cn12)NC1CCS(=O)(=O)C1 (centres undefined) | -13

(next part)
SMILES	OX1R antagonist
CN(C(=O)c1cccn(Cc2ccccc2)c1=O)c1ccccc1	-6
O=C(Nc1ccc(OCC(F)(F)C(F)F)cc1)c1ccncc1	-4
COc1ccc(C(CC(=O)O)NC(=O)c2ccco2)cc1OC (centres undefined)	-7
S=C(NCC(c1cccnc1)N1CCOCC1)NC1CCCCC1 (centres undefined)	-5
Cc1cc(OC(=O)c2ccccc2C(F)(F)F)c([N+](=O)[O-])c(=O)[nH]1	2
CC(=O)N1c2ccc(S(=O)(=O)NCc3ccco3)cc2CC1C (centres undefined)	-9
Cc1cc(/C=C2\SC(=Nc3ccc(F)cc3)NC2=O)c(C)n1-c1ccc(S(N)(=O)=O)cc1	2
CC(=O)Nc1ccc(S(=O)(=O)N2CCN(S(=O)(=O)N3CCCCC3)CC2)cc1	4
CN1/C(=C\C(=O)c2cccs2)Sc2ccccc21	-28
COc1ccc(C(=O)N/C(=C/c2ccccc2F)C(=O)NCCN2CCOCC2)cc1OC	-24

A second format for part of the listing above:
> CC(=O)N1c2ccc(S(=O)(=O)NCc3ccco3)cc2CC1C (centres undefined)
- OX1R antagonist: -9

> Cc1cc(/C=C2\SC(=Nc3ccc(F)cc3)NC2=O)c(C)n1-c1ccc(S(N)(=O)=O)cc1
- OX1R antagonist: 2

> CC(=O)Nc1ccc(S(=O)(=O)N2CCN(S(=O)(=O)N3CCCCC3)CC2)cc1
- OX1R antagonist: 4

> CN1/C(=C\C(=O)c2cccs2)Sc2ccccc21
- OX1R antagonist: -28

New compounds follow
SMILES	OX1R antagonist
COc1ccc(-n2c(SCC(=O)N(C)c3ccccc3)nc3c([nH]c4ccccc43)c2=O)cc1OC	-2
COc1ccc(CNC(=S)Nc2cc(OC)ccc2OC)cc1	-16
CCCc1sc(N)nc1-c1ccc(Cl)cc1	-41
CCCCn1c(SCC(=O)N2CCCC2)nc2c1c(=O)n(C)c(=O)n2C	-14
Cc1noc(NS(=O)(=O)c2ccc(NC(=O)COc3ccccc3)cc2)c1C	-2
CCN1CCN(S(=O)(=O)c2ccc(Cl)c(C(=O)N(C)CCOc3ccc(Cl)cc3)c2)CC1	-32
O=C(O)CSc1nnc(-c2cccs2)n1-c1ccc(Cl)cc1	-16
CCCCC(=O)Nc1ccc(N2CCN(C(=O)CC)CC2)cc1	-8
COc1cc(CNn2c(C)n[nH]c2=S)cc(Br)c1OCC(=O)NC(C)(C)C	-41
Clc1ccccc1OCc1nc(-c2ccc(Br)o2)no1	-14

Carrying on.
SMILES	OX1R antagonist
CC(C)(C)c1ccc(S(=O)(=O)NNC(=O)C2CCN(Cc3cccc(F)c3)CC2)cc1	-22
O=C(NNc1ccccc1[N+](=O)[O-])Nc1cccc(Cl)c1	-25
CC(=O)Oc1ccc2ccccc2c1C(NC(=O)C(C)C)c1cccc([N+](=O)[O-])c1 (centres undefined)	-17
CCOC(=O)c1[nH]nc2c1C(=O)N(Cc1ccccc1)C2=O	-5
CCc1ccc(C2=NNC(=Nc3cccc(S(=O)(=O)N(C)C)c3)SC2)cc1	-13
NC(=O)CSc1n[nH]c(-c2ccco2)n1	7
OCC[C@@H]1C[C@H](O)[C@@H](O)[C@@]2(CCCO2)O1	-8
CCn1c(C)c(C2=CCN(S(=O)(=O)c3ccc(C)cc3)CC2)c2ccccc21	-13
Cc1cc(C(=O)OC(C)C(=O)N2CCc3ccccc32)ccc1[N+](=O)[O-] (centres undefined)	-29
Cc1cc(NC(=O)C(=O)NCc2cccc(Cl)c2)no1	6

Following part
SMILES	OX1R antagonist
Cc1cc(C)c(NC(=O)c2ccc(S(=O)(=O)N(C)C)cc2)c(C)n1	-11
Cc1cc(C(=O)Nn2cnc3ccccc3c2=O)ccc1[N+](=O)[O-]	-15
CCOc1ccc(NC(=O)c2cc(OC)nc3ccccc23)cc1	-29
CCN(CC)c1ccc2c(Nc3ccccc3)c(C=O)c(=O)oc2c1	-35
COc1ccc(NC(=O)Cn2nnc(C(=O)Nc3ccccc3C)c2N)cc1	-6
O=S1(=O)N=C(N/N=C/C=C/c2ccccc2)c2ccccc21	-16
CC(=O)c1ccc2noc(-c3ccc(Cl)cc3)c2c1	-13
O=C(CC1Oc2ccccc2NC1=O)NCCCN1CCN(C2CCCCC2)CC1 (centres undefined)	-12
O=S(=O)(NCc1ccccc1)c1ccc2ccccc2c1	-17
CCSc1nnc(NC(=O)CSc2nnc(CNC(=O)c3cc(OC)c(OC)c(OC)c3)o2)s1	3

Carrying on:
SMILES	OX1R antagonist
CCN(CC)c1ccc(C(=O)OCC(=O)N2CCCC2)cc1	-29
COc1ccc(/C(C)=N/NC(=O)CNC(=O)c2cccnc2)c(OC)c1	-7
O=C(Nc1ccc(O)cc1)c1cc(S(=O)(=O)N2CCCC2)ccc1Cl	-3
NC(=O)c1ccc(Oc2cccc3cccnc23)c([N+](=O)[O-])c1	-19
Cc1ccc(C)c2c1c1ccccc1n2C	-12
CC(C)CC(NC(=O)C(NC(=O)OC(C)(C)C)C(C)C)C(=O)NC(CCC(=O)OCc1ccccc1)C(N)=O (centres undefined)	-4
CCC(C)[C@H]1COCCS(=O)(=O)N1Cc1ccc(Cl)cc1Cl (some centres undefined)	-30
CC1=NN(c2ccc(N)cc2)C(=O)C1	2
CCCn1c(SCC(=O)Nc2cccc(NC(C)=O)c2)nnc1C(C)C	1
CCOCCCn1cnc2c(c1=O)c1nc3ccccc3nc1n2-c1ccccc1	-31

4 of these compounds in a different format.
CC(=O)Oc1ccc2ccccc2c1C(NC(=O)C(C)C)c1cccc([N+](=O)[O-])c1 (centres undefined)
  OX1R antagonist: -17

CCOC(=O)c1[nH]nc2c1C(=O)N(Cc1ccccc1)C2=O
  OX1R antagonist: -5

CCc1ccc(C2=NNC(=Nc3cccc(S(=O)(=O)N(C)C)c3)SC2)cc1
  OX1R antagonist: -13

NC(=O)CSc1n[nH]c(-c2ccco2)n1
  OX1R antagonist: 7

Next compounds follow.
SMILES	OX1R antagonist
O=C1c2ccccc2C(=O)N1c1ccc(Cl)cn1	-14
C/C(=C\C(=O)c1ccccc1)NNc1nc2ccccc2s1	-22
CC1CCCCN1CC(O)COCCC12CC3CC(CC(C3)C1)C2 (centres undefined)	5
COC(=O)c1sc(C(F)(F)F)c(-c2ccccc2)c1S(=O)(=O)NC(C)(C)C	-39
Cc1c(/C=C2\SC(=Nc3cccc(C(=O)O)c3)NC2=O)c2ccccc2n1C	3

Assay outcomes from PubChem BioAssay.
